DUX4 txn inh: DUX4-mediated transcription inhibition; 293T-iDUX4 ZSCAN4-Gaussia luciferase reporter, 24 h; hits give low values; activity change, negative = inhibition, % (concentration not given with the values); 0.8% of 37,000 active;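 active = -10% or lower and over 25 points stronger than a control reporter; inconclusive = -10% or lower with a smaller gap; inactive = above -10%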;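 note: 0% = median of neutral control wells and -100% = median of positive control wells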
DUX4 txn inh difference: also measured in DUX4 txn inh; calls as there; Gaussia minus Italica difference, %; measured here: selective DUX4 reporter inhibition;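 worked out from the two reporters; negative = selective loss of the DUX4 reporter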
DUX4 txn inh control: second read-out of DUX4 txn inh, no call of its own (marks repeat the call); activity change, negative = inhibition, %; measured here: Italica tet-on control reporter;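 0 = neutral control and -100 = positive control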
* = called active by the depositor; ? = inconclusive; / = no result given. The list is partial; count on the stated rates, not on these rows.

The line under a structure holds: DUX4 txn inh, DUX4 txn inh difference, DUX4 txn inh control
O=C(Cc1ccccn1)NCC[C@@H]1CC[C@H](NC(=O)Nc2ccc(C(F)(F)F)cc2)[C@@H](CO)O1
→ ?, /, /
COc1ccc(C[C@@H]2CCn3cc(nn3)COC[C@H](CC(C)C)NC2=O)cc1
→ -4.1, -7.2, 3.1
COc1ccc2c3c([nH]c2c1)[C@H](CO)N(C(=O)c1ccccn1)CC31CN(S(C)(=O)=O)C1
→ 12.5, -12.5, 25.0
COc1ccc2c3c(n(C)c2c1)[C@@H](CO)N(C(=O)Nc1ccc(F)cc1)CC31CCN(CC2CCOCC2)CC1
→ 15.1, 15.8, -0.7
N#C[C@H]1[C@H](c2ccc(-c3ccccc3F)cc2)[C@@H](CO)N1C(=O)C1CC1
→ -2.4, -3.7, 1.3
C/C=C/c1ccc([C@H]2[C@H]3CN(C(=O)Nc4cc(F)ccc4F)CCCCN3[C@H]2CO)cc1
→ 3.5, 9.1, -5.6
CC(C)NC(=O)N[C@@H]1C=C[C@@H](CC(=O)NCc2ccc(Oc3ccccc3)cc2)O[C@H]1CO
→ 3.9, 2.8, 1.2
CC(C)(C)[S@](=O)N1Cc2cc(C(=O)N3CCc4ccccc4C3)nc(-c3cccc(-c4ccncc4)c3)c2[C@@H]1CCO
→ 0.9, -1.6, 2.5
C[C@H]1CN([C@@H](C)CO)C(=O)c2c(c3ccccc3n2C)-c2ccccc2CO[C@H]1CN(C)S(=O)(=O)c1ccc(F)cc1
→ ?, /, /
O=C(C[C@@H]1CC[C@@H]2[C@H](COC[C@@H](O)CN2Cc2cc(F)ccc2F)O1)N[C@H]1CCN(Cc2ccccc2)C1
→ -4.1, -2.8, -1.3
C/C=C/c1ccc([C@H]2[C@@H](CO)N(C(C)=O)[C@H]2CN(CC(C)C)C(C)=O)cc1
→ 0.8, -0.4, 1.1
CO[C@@H]1CN(C)C(=O)c2ccc(NS(=O)(=O)c3c(C)noc3C)cc2OC[C@H](C)NC[C@@H]1C
→ -0.7, -6.1, 5.4
C[C@H]1CCCCO[C@H](CN(C)S(C)(=O)=O)[C@@H](C)CN([C@@H](C)CO)C(=O)c2cc(NC(=O)NC3CCCCC3)ccc2O1
→ 0.9, -2.5, 3.4
CC=Cc1ccc2n(c1=O)C[C@@H]1[C@@H](CO)[C@H](C(=O)N(C)C)N(CC3CCCCC3)[C@H]21 (mixture of isomers)
→ 1.4, -1.1, 2.5
CCN(C[C@H]1[C@@H](c2ccccc2)[C@@H](CO)N1C(C)=O)C(=O)c1ccccn1
→ -2.7, -1.4, -1.3
N#C[C@@H]1[C@@H](c2ccc(C3=CCCC3)cc2)[C@@H](CO)N1C(=O)NC1CCCCC1
→ 2.8, -3.8, 6.5
C[C@@H](NC(=O)C[C@H]1CC[C@H]2[C@@H](COC[C@H](O)CN2C(=O)Nc2cccc(F)c2)O1)c1ccccc1
→ 15.5, -2.5, 18.0
Cn1cnc(S(=O)(=O)N2CCCCN3[C@H](CO)[C@H](c4ccc(-c5cccc(F)c5)cc4)[C@@H]3C2)c1
→ 6.4, 16.9, -10.4
O=C([C@H]1[C@H](CO)[C@H]2Cn3c(ccc(-c4cccc(F)c4)c3=O)[C@H]2N1Cc1cocn1)N1CCCCC1
→ -2.9, -3.5, 0.6
CC=Cc1ccc2n(c1=O)C[C@H]1[C@H](CO)[C@@H](C(=O)NC3CCCC3)N(CC3CCCCC3)[C@@H]21 (mixture of isomers)
→ ?, /, /
CN1c2ccc(-c3ccccc3)cc2[C@H]2[C@H](CCN2C(=O)Cc2ccccn2)[C@@H]1CO
→ 17.9, 57.0, -39.1
COC(=O)C[C@H]1CC[C@@H]2[C@@H](COc3ccc(NC(=O)c4ccccc4F)cc3C(=O)N2C)O1
→ 5.2, 1.7, 3.5
C[C@@H]1CN([C@H](C)CO)C(=O)c2cccc(N(C)C)c2O[C@@H]1CN(C)Cc1ccc2c(c1)OCO2
→ 1.4, 2.2, -0.7
CCS(=O)(=O)N1CC2(CN(C(=O)c3cccnc3)C2)c2c(n(C)c3cc(OC)ccc23)[C@H]1CO
→ -9.2, -18.6, 9.4
O=C(C[C@H]1C[C@@H]2c3cc(NC(=O)Nc4ccc(C(F)(F)F)cc4)ccc3O[C@@H]2[C@H](CO)O1)NCc1cc(F)ccc1F
→ 16.9, 15.4, 1.5
C/C=C/c1ccc([C@@H]2[C@H](CO)N(S(C)(=O)=O)[C@H]2CN(CC)C(C)=O)cc1
→ -5.7, -8.5, 2.7
CC(C)CC#Cc1ccc([C@H]2[C@@H](CO)N3CCCCN(C(=O)Nc4ccccc4)C[C@H]23)cc1
→ ?, /, /
C[C@H](O)C#Cc1ccc([C@H]2[C@H](CO)N3CCCCN(S(=O)(=O)Cc4ccccc4)C[C@@H]23)cc1
→ 14.3, 2.3, 12.0
O=C(C[C@@H]1CC[C@@H]2[C@H](COC[C@H](O)CN2CCc2ccccc2)O1)N1CCC(Cc2ccccc2)CC1
→ ?, /, /
CC(=O)NC[C@@H]1[C@H](c2ccc(-c3cccc(F)c3)cc2)[C@H](CO)N1C(C)=O
→ -2.2, -4.8, 2.5
C[C@@H]1CN([C@H](C)CO)C(=O)c2cc(C3=CCCC3)cnc2O[C@H]1CN(C)Cc1cccc(F)c1
→ 1.3, 2.9, -1.6
CN1C(=O)c2cc(NC(=O)Cc3cccs3)ccc2OC[C@@H]2O[C@H](CC(=O)N[C@@H]3CCN(Cc4ccccc4)C3)CC[C@@H]21
→ 1.1, -0.4, 1.5
CC(=O)N1[C@@H](CO)[C@@H]2c3ccccc3N(C(=O)Nc3cc(F)ccc3F)C[C@@H]21
→ -1.9, -2.0, 0.1
C[C@H]1CN([C@@H](C)CO)C(=O)CCCn2cc(nn2)CO[C@@H]1CN(C)Cc1ccc2c(c1)OCCN2C
→ -6.1, -1.6, -4.5
C[C@H]1CN([C@@H](C)CO)S(=O)(=O)c2ccc(C#CCC3CCCC3)cc2O[C@H]1CN(C)C(=O)c1cnccn1
→ -3.9, -7.3, 3.4
COc1ccc(NC(=O)Nc2ccc3c(c2)[C@H]2C[C@H](CC(=O)NC4CCCCC4)O[C@@H](CO)[C@H]2O3)cc1
→ -0.4, -6.3, 6.0
CN(C)c1ccc2c(c1)[C@@H]1C[C@@H](CC(=O)NCc3ccccc3F)O[C@@H](CO)[C@@H]1O2
→ -1.6, 6.9, -8.5
C[C@@H]1CN([C@@H](C)CO)C(=O)CCCn2cc(nn2)CO[C@@H]1CN(C)Cc1cccc(C(=O)O)c1
→ 8.3, 6.9, 1.4
CCCNC(=O)C[C@@H]1CC[C@H]2[C@@H](COC[C@@H](O)CN2C(=O)Nc2cccc(Cl)c2)O1
→ 10.1, 0.1, 10.1
COc1cccc(S(=O)(=O)Nc2ccc3c(c2)[C@@H]2C[C@@H](CC(=O)NC4CCCCC4)O[C@H](CO)[C@@H]2O3)c1
→ -5.7, -2.3, -3.4
C[C@H]1CN([C@@H](C)CO)C(=O)c2ccccc2-c2ccccc2CO[C@H]1CN(C)C(=O)NC1CCCCC1
→ 2.9, -0.5, 3.4
OC[C@@H]1[C@@H](c2ccc(C#CC3(O)CCCC3)cc2)[C@@H]2CN(Cc3cncnc3)CCCCN12
→ 13.3, -10.9, 24.1
Cc1cc(C(=O)Nc2ccc3c(c2)C(=O)N(C)[C@H]2CC[C@@H](CC(=O)NCc4ccc(-c5ccccc5)cc4)O[C@@H]2CO3)no1
→ 0.0, -3.0, 3.0
O=C(C[C@@H]1C[C@@H]2c3cc(NC(=O)c4cccnc4)ccc3O[C@@H]2[C@@H](CO)O1)NCc1ccc(Oc2ccccc2)cc1
→ ?, /, /
CCC(=O)Nc1ccc2c(c1)C(=O)N(C)C[C@H](OC)[C@H](C)CN(C(=O)c1ccc(F)cc1)[C@@H](C)CO2
→ 7.5, 3.8, 3.8

Compound profiles, as listed above.
CCCNC(=O)C[C@@H]1CC[C@H]2[C@@H](COC[C@@H](O)CN2C(=O)Nc2cccc(Cl)c2)O1 across the screens: DUX4 txn inh: 10.1; DUX4 txn inh difference: 0.1; DUX4 txn inh control: 10.1
OC[C@@H]1[C@@H](c2ccc(C#CC3(O)CCCC3)cc2)[C@@H]2CN(Cc3cncnc3)CCCCN12 across the screens: DUX4 txn inh: 13.3; DUX4 txn inh difference: -10.9; DUX4 txn inh control: 24.1

Following part.
The line under a structure holds: DUX4 txn inh, DUX4 txn inh difference, DUX4 txn inh control
CC(C)NC(=O)N1CCCCN2[C@H](CO)[C@@H](c3ccc(C#Cc4ccccc4F)cc3)[C@@H]2C1
→ ?, /, /
CN(C)C(=O)c1cccc(-c2ccccc2[C@@H]2[C@@H](C#N)N(C(=O)C3CC3)[C@@H]2CO)c1
→ 10.7, 12.5, -1.8
CN(C)C(=O)C[C@@H]1C[C@H]2c3cc(NC(=O)CC4CC4)ccc3O[C@H]2[C@H](CO)O1
→ 6.4, 6.5, -0.1
CO[C@@H]1CN(C)C(=O)c2ccc(NS(=O)(=O)c3ccccc3C)cc2OC[C@@H](C)NC[C@@H]1C
→ 6.8, -1.7, 8.5
COc1ccccc1CNC(=O)C[C@@H]1C[C@@H]2c3cc(NS(C)(=O)=O)ccc3O[C@@H]2[C@H](CO)O1
→ 7.0, 8.8, -1.8
C[C@H](CO)N1C[C@H](C)[C@H](CN(C)C(=O)C2CCCCC2)Oc2cc(C#C[C@@H](C)O)ccc2S1(=O)=O
→ 0.2, 0.5, -0.3
N#C[C@H]1[C@@H](c2ccc(/C=C/c3ccccc3)cc2)[C@@H](CO)N1C(=O)C1CCCC1
→ -1.3, 1.6, -2.9
C[C@@H]1CN([C@H](C)CO)C(=O)CCCn2cc(nn2)CO[C@@H]1CN(C)S(=O)(=O)c1ccc(F)cc1
→ -0.3, -1.7, 1.4
CS(=O)(=O)N1CC2(C1)[C@H](c1ccccc1)[C@@H](CO)N2CCC(F)(F)F
→ 1.6, -6.5, 8.1
COCCNC(=O)C[C@@H]1C[C@@H]2c3cc(NC(=O)CC4CC4)ccc3O[C@@H]2[C@@H](CO)O1
→ 4.6, 5.6, -0.9
Cc1ccccc1-c1ccc([C@@H]2[C@@H](CO)N3CCCCN(C(=O)NC4CCCC4)C[C@H]23)cc1
→ -8.6, -2.3, -6.3
CN(C)c1ccc2c(c1)[C@@H]1C[C@@H](CC(=O)N3CCc4ccccc4C3)O[C@H](CO)[C@@H]1O2
→ 3.8, 0.6, 3.2
COc1ccccc1-c1ccc(C2[C@H]3CNC[C@@H]2N3Cc2cc(-c3ccccc3)on2)cc1 (stereo partly drawn)
→ 3.7, 8.7, -5.1
CNC[C@@H]1OCCCC[C@H](C)Oc2ccc(NC(=O)Nc3c(C)noc3C)cc2C(=O)N([C@@H](C)CO)C[C@H]1C
→ 6.8, 7.6, -0.8
C[C@@H]1CN([C@@H](C)CO)C(=O)c2cc(NC(=O)C3CCCCC3)ccc2O[C@@H]1CN(C)Cc1ccc2c(c1)OCO2
→ 1.6, -1.2, 2.8
CN(C)c1ccc2c(c1)[C@H]1C[C@H](CC(=O)NCC3CC3)O[C@@H](CO)[C@H]1O2
→ 12.6, 12.0, 0.6
C[C@@H](NC(=O)C[C@H]1C[C@H]2c3cc(NC(=O)C4CCOCC4)ccc3O[C@H]2[C@H](CO)O1)c1ccccc1
→ 5.7, 7.3, -1.6
C[C@H]1CN([C@@H](C)CO)C(=O)CCCn2cc(nn2)CO[C@@H]1CN(C)S(=O)(=O)c1ccc(-c2ccccc2)cc1
→ 0.2, 1.5, -1.3
C[C@@H](NC(=O)C[C@H]1C[C@@H]2c3cc(N(C)C)ccc3O[C@@H]2[C@H](CO)O1)c1ccccc1
→ 8.9, 4.2, 4.7
CN(C)C(=O)c1ccc(-c2ccccc2[C@H]2[C@H](C#N)N(C(=O)C3CCCCC3)[C@H]2CO)cc1
→ 2.7, -2.7, 5.4
C[C@@H]1CN([C@@H](C)CO)C(=O)c2cc(NC(=O)C3CCCCC3)ccc2O[C@@H](C)CCCCO[C@H]1CN(C)C(=O)Nc1ccc2c(c1)OCO2
→ -3.6, -6.6, 3.0
C[C@H]1CN([C@@H](C)CO)C(=O)CCCn2cc(nn2)CO[C@H]1CN(C)C(=O)Nc1cccc(Oc2ccccn2)c1
→ 3.3, -0.8, 4.1
C[C@@H]1CCCCO[C@@H](CN(C)Cc2ccc(C(F)(F)F)cc2)[C@@H](C)CN([C@@H](C)CO)C(=O)c2cc(NC(=O)Nc3cccc4ccccc34)ccc2O1
→ 4.3, 2.2, 2.1
C[C@@H]1CN([C@H](C)CO)C(=O)c2cc(NS(C)(=O)=O)ccc2O[C@@H](C)CCCCO[C@@H]1CN(C)C(=O)Cc1ccccc1
→ 0.2, -1.9, 2.0
O=C(C[C@H]1CC[C@@H]2[C@H](COC[C@H](O)CN2Cc2nccs2)O1)NCc1ccc(F)cc1
→ 10.2, 11.4, -1.2
O=C(C[C@H]1CC[C@@H]2[C@H](COC[C@@H](O)CN2C(=O)Nc2ccc(Cl)c(Cl)c2)O1)NCc1ccncc1
→ 1.7, 3.6, -1.9
O=C(NC1CCC1)[C@H]1[C@H](CO)[C@H]2Cn3c(ccc(-c4ccccc4F)c3=O)[C@H]2N1Cc1ccncc1
→ 1.6, 0.2, 1.5
O=C(NCC1CC1)[C@@H]1[C@@H](CO)[C@@H]2Cn3c(ccc(/C=C/c4ccccc4)c3=O)[C@H]1N2C(=O)C1CCC1
→ 2.8, 0.1, 2.7
O=C(Nc1ccc2c(c1)OCO2)N1C[C@@H]2N[C@H](C1)C2c1ccc(-c2ccccc2)cc1 (stereo partly drawn)
→ ?, /, /
COc1ccc(C#Cc2ccc([C@H]3[C@@H](CO)N4CCCCN(C(=O)c5ccncc5)C[C@H]34)cc2)cc1
→ ?, /, /
CCCN(C)C[C@@H]1OCc2cnnn2CCCC(=O)N([C@H](C)CO)C[C@@H]1C
→ -7.5, -8.7, 1.1
COc1cccc(CN2[C@H](CO)[C@H](c3ccccc3)C23CN(C(=O)C2CCC2)C3)c1
→ ?, /, /

Assay outcomes: PubChem, Broad Institute
